Screening data as filed in PubChem.
TsaE inh: qHTS Assay for Inhibitors of YjeE; tRNA threonylcarbamoyladenosine biosynthesis protein TsaE (Escherichia coli (strain …; hit rate 0.05% among 71,000; purified YjeE, fluorescence polarisation of a bound ADP probe; Potency, µM; active = well fitted falling curve; inconclusive = weaker or top-dose-only fall, or a rising curve; inactive = flat or poorly fitted curve;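 also: top concentration of the series not given in the record; excess ADP was the control for the full effect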
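Fluorescence polarization of a BODIPY Texas Red–ADP probe (2 uM) bound to purified YjeE (10 uM) was read after 15 min room-temperature incubation with compounds. Loss of polarization marks inhibitors; ADP serves as titrated control.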
Bst PK mod: Pyruvate Kinase. AID 361, 2006. partly purified Bacillus stearothermophilus pyruvate kinase, luminescence ATP production; ribose 5-phosphate activator present at AC10. hit rate 1.2% among 51,000. Potency, µM; in the data active means potency below about 11 µM; inconclusive means mostly about 12 µM to 25 µM; inactive means weaker than that;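 the screen sought inhibitors and activators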;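 also: potency is read from the fitted curve at half-maximal effect; scaled between full activation by ribose 5 phosphate and full inhibition by luteolin; about four in five hits inhibit and the cells do not say which; series up to 57 µM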
Active calls of the source: *; i = inactive; ? = inconclusive; . = no result given. The list is partial; count on the stated rates, not on these rows.

SMILES	TsaE inh	Bst PK mod
CCOc1cccc(-c2cc(=O)[nH][nH]2)c1	i	>57
C=CCNC(=O)c1cc(=O)c2ccccc2o1	i	>57
CCOC(=O)C1CCN(C(=O)c2ccc(OC)cc2OC)CC1	i	.
CSc1nc2sc3c(c2c(=O)n1C)CCC(C)C3 (centres undefined)	i	.
O=C(CSc1c2c(nc3ccc(Cl)cc13)CCCC2)N1CCN(C(=O)c2ccco2)CC1	i	>57
CC1(C)OC(C(=O)NC2CCCCC2)C(C(=O)NC2CCCCC2)O1 (centres undefined)	i	>57
CC(=O)C(C)Oc1ccc2c3c(c(=O)oc2c1C)CCCC3 (centres undefined)	i	.
O=c1c(-c2ccc(F)cc2)nc2cncnc2n1Cc1ccccc1	i	.
COC(=O)c1[nH]c(C)c(/C(O)=C2\C(=O)C(=O)N(CCN3CCOCC3)C2c2cccs2)c1C (centres undefined)	i	>57
CN(Cc1nnc(SCC(=O)NCCc2ccccc2)n1C)S(=O)(=O)c1ccccc1	i	>57
N#CCCSc1nc(N2CCOCC2)c2c(c1C#N)CCCC2	.	>25.6
CCOC(=O)c1nnn(CC(=O)Nc2cccc(OC)c2)c1C(=O)OCC	i	>57
C#CCSC1=C(C#N)C(c2cccs2)C(C(=O)OCC)=C(C)N1 (centres undefined)	.	>25.6
O=C(Nc1cnn(Cc2ccccc2)c1)c1nc2ncccn2n1	i	>57
Cc1ccc2c(c1)c1c3n2CCN=C3CCC1	i	i
O=C(C1CC1)N1CCc2cc(S(=O)(=O)NCC3COc4ccccc4O3)ccc21 (centres undefined)	i	>57
O=C1CC(N2CCN(c3cccc(C(F)(F)F)c3)CC2)C(=O)N1c1ccccc1 (centres undefined)	i	.
Cc1sc(NC(=O)CN2CCN(c3ccccn3)CC2)c(C#N)c1C	i	>57
O=C(NCCO)C(c1ccccc1)c1ccccc1	i	.
Cc1cc(NC(=O)CCCC(=O)NCc2cccs2)no1	i	.

Copied from the listing, 17 compounds:
SMILES	TsaE inh	Bst PK mod
CCOc1cccc(-c2cc(=O)[nH][nH]2)c1	i	>57
C=CCNC(=O)c1cc(=O)c2ccccc2o1	i	>57
CCOC(=O)C1CCN(C(=O)c2ccc(OC)cc2OC)CC1	i	.
CSc1nc2sc3c(c2c(=O)n1C)CCC(C)C3 (centres undefined)	i	.
O=C(CSc1c2c(nc3ccc(Cl)cc13)CCCC2)N1CCN(C(=O)c2ccco2)CC1	i	>57
CC1(C)OC(C(=O)NC2CCCCC2)C(C(=O)NC2CCCCC2)O1 (centres undefined)	i	>57
CC(=O)C(C)Oc1ccc2c3c(c(=O)oc2c1C)CCCC3 (centres undefined)	i	.
O=c1c(-c2ccc(F)cc2)nc2cncnc2n1Cc1ccccc1	i	.
COC(=O)c1[nH]c(C)c(/C(O)=C2\C(=O)C(=O)N(CCN3CCOCC3)C2c2cccs2)c1C (centres undefined)	i	>57
CN(Cc1nnc(SCC(=O)NCCc2ccccc2)n1C)S(=O)(=O)c1ccccc1	i	>57
N#CCCSc1nc(N2CCOCC2)c2c(c1C#N)CCCC2	.	>25.6
CCOC(=O)c1nnn(CC(=O)Nc2cccc(OC)c2)c1C(=O)OCC	i	>57
C#CCSC1=C(C#N)C(c2cccs2)C(C(=O)OCC)=C(C)N1 (centres undefined)	.	>25.6
O=C(Nc1cnn(Cc2ccccc2)c1)c1nc2ncccn2n1	i	>57
Cc1ccc2c(c1)c1c3n2CCN=C3CCC1	i	i
O=C(C1CC1)N1CCc2cc(S(=O)(=O)NCC3COc4ccccc4O3)ccc21 (centres undefined)	i	>57
O=C1CC(N2CCN(c3cccc(C(F)(F)F)c3)CC2)C(=O)N1c1ccccc1 (centres undefined)	i	.

(list continues)
SMILES	TsaE inh	Bst PK mod
CC(C)CN(C(=O)COC(=O)C12CC3CC(CC(O)(C3)C1)C2)C1CCS(=O)(=O)C1 (centres undefined)	i	>57
CS(=O)(=O)NCCSCc1ccccc1	i	>57
CC1(C)N=C(N)N=C(N)N1CCCCc1ccccc1	i	.
Cc1cccc(N(CC(=O)Nc2c(C)n(C)n(-c3ccccc3)c2=O)S(C)(=O)=O)c1	i	.
CSC1=NCCN1C(=O)c1ccc(S(=O)(=O)N(C)C)cc1	i	.
Cc1cc(NC(=O)Cc2cccs2)nn1CC(=O)NCc1ccco1	i	>57
COc1cc(C)c(S(=O)(=O)NC2CC(C)(C)NC(C)(C)C2)cc1C	i	>57
COc1ccc(C)cc1S(=O)(=O)N(C)CC(N)=O	i	>57
CC(=O)Nc1nc(C)nc(-c2ccccc2)c1C(C)=O	i	>57
COc1ccccc1N1CCN(C(=O)c2cnn3cccnc23)CC1	i	?
Cc1ccc(NC(=O)CSCC(=O)O)c(C)c1	i	>57
COCCN1C(=O)c2ccccc2C(C(=O)N2CCN(c3ccccn3)CC2)C1c1ccc(F)cc1 (centres undefined)	i	>57
CCn1c(SCC(=O)c2ccccc2)nc2c(c1=O)SC(C)C2 (centres undefined)	i	>57
COc1ccc(N2CCN(S(=O)(=O)c3ccc(C(=O)NC4CCCC4)cc3)CC2)cc1	i	>57
COc1cccc(OCCSc2nnc3sc4ccccc4n23)c1	i	.
COCCn1c(C)cc(C(=O)CN2C(=O)NC3(CCCCCCC3)C2=O)c1C	i	>57
CCOC(=O)c1sc2c(c1C)C(c1cccs1)C1=C(CCCC1=O)N2 (centres undefined)	i	>57
CC1CCCC(C)N1CCCNC(=O)c1cc2c(=O)n(C)c3ccccc3c2n1C (centres undefined)	i	.
Cc1cc(C(=O)OCC(=O)N2CC(C)CC(C)C2)c(C)o1 (centres undefined)	i	>57
COc1cccc(NC(=O)c2ccncc2)c1	i	.
O=C(O)c1ccc(SSc2ccc(C(=O)O)cn2)nc1	i	.
COc1ccccc1CN1C(=O)c2ccncc2C1=O	i	>57
CCOC(=O)Cc1csc(NC(=O)CN(C)S(=O)(=O)c2ccc3c(c2)CCC(=O)N3)n1	i	.
O=C(NCc1ccc2c(c1)OCO2)c1c(F)c(F)c(F)c(F)c1F	i	7.72*
O=C(NCCc1ccccc1)c1ccc(Br)o1	i	.
CCCCC/C=C/C=C/C=O	i	.
COc1cccc2cc(C(=O)N(C)C3CCN(C)CC3)c(=O)oc12	i	>57
O=C(Cn1nnc(-c2ccc(Cl)cc2)n1)NC1CCN(Cc2ccccc2)CC1	i	>57
COCCOC(=O)C1=C(N)OC2=C(C(=O)CCC2)C1c1cccnc1 (centres undefined)	i	>57
O=C(Nc1ccc(F)cc1)c1cc(S(=O)(=O)N2CCCCC2)cs1	i	.
O=C(CN1C(=O)c2ccccc2C1=O)NCc1ccccn1	.	>25.6
O=c1[nH]c(-c2cccnc2)nc2ccccc12	i	.
NCC(=O)Nc1ccc(Cl)cc1C(=O)c1ccc[nH]1	i	.
CN(C)C(=O)CN1C(=O)C2CC=C(Cl)CC2C1=O (centres undefined)	i	>57
COC(=O)CN(C#N)c1nc(SC)nc(N(C)C)n1	i	>57
Cc1nn(Cc2ccccc2)c2sc(C(=O)N3CCN(Cc4ccc5c(c4)OCO5)CC3)cc12	i	>57
NCCCNCCSP(=O)(O)O	i	.
O=C(CN1CCN(C2CCCCC2)CC1)NCCC1=CCCCC1	i	>57
COC(=O)Cc1c(C)c2ccc(OC(=O)c3ccco3)cc2oc1=O	i	>57
O=C(NCCC1=CCCCC1)c1ccc(Br)o1	i	>57
Cc1cc(C)nc(N2CCCC(C(=O)NC3CCCC3)C2)n1 (centres undefined)	i	>57
CCOC(=O)c1c(C)[nH]c(NC(=O)N2CCOCC2)c1C	i	>57
CCNS(=O)(=O)c1ccc(NC(=O)Nc2cccc(OC)c2)cc1	i	.
Cc1cc2ncn(CC(=O)O)c2cc1C	i	.
O=C(Nc1ccc(O)cc1)c1cc2n(n1)C(C(F)(F)F)CC(c1ccco1)N2 (centres undefined)	i	>57
c1ccc(SCc2nc3ccccc3[nH]2)nc1	.	>25.6
COCCNC(=O)COc1cc(=O)n(C)c2ccccc12	i	>57
CCCC(=O)NCCSC	i	.
CN(C)C(=O)c1ccc(-c2cncnc2-n2ccnc2)cc1	i	.
COc1cccc(CNC(=O)CCCNS(=O)(=O)c2cccs2)c1	i	>57
CC1Cn2c(nc3c2c(=O)[nH]c(=O)n3C)O1 (centres undefined)	i	>57
Cc1nc2nc[nH]n2c(=O)c1CCC(C)C	i	>57
Clc1cc(Cl)c2nc(N3CCCC3)sc2c1	i	.
Cc1ccc(CCN2CC(C(=O)NCCCN3CCOCC3)CC2=O)cc1 (centres undefined)	i	>57
CCOc1ccccc1C(=O)N1CCC(n2nnc3cc(C)ccc32)CC1	i	>57
COc1cc(-c2nc(S(=O)(=O)c3ccc(Cl)cc3)c(N3CCOCC3)o2)cc(OC)c1OC	i	>57
CCN(C(=O)CCc1nc(-c2ccc(OC)cc2)no1)c1cc(OC)ccc1OC	i	>57
Cc1c(C(O)CN2CCN(Cc3ccc4c(c3)OCO4)CC2)c2ccccc2n1C (centres undefined)	i	>57
COc1ccc2nc(NC(=O)C3CCN(S(=O)(=O)c4cnc[nH]4)CC3)sc2c1	i	>57
CCCC(C(=O)NC1CCCC1)N(CCCN1CCOCC1)C(=O)c1snc(C(N)=O)c1N (centres undefined)	i	>57
Next entries follow.
SMILES	TsaE inh	Bst PK mod
CC(C)OC(=O)CSc1nc(N)c(C#N)c(-c2cccs2)c1C#N	i	.
COc1ccccc1N1C(=O)CC(Sc2ncccc2C(=O)O)C1=O (centres undefined)	i	>57
CCn1ncc(C2=NOC(C(=O)Nc3c(C)n(C)n(-c4ccccc4)c3=O)C2)c1C (centres undefined)	i	.
CCCC(=O)Nc1nc(-c2ccc3c(c2)OCCO3)cs1	i	.
CCOC(=O)N1CCN(C(=O)C2CCN(C(=O)c3cc4sccc4n3CC)CC2)CC1	i	.
CC(C)(C)N=C1NC(=NC(C)(C)C)c2ccccc21	i	>57
COc1cccc(Cn2c(=O)c(-c3cn(C)c4ccccc34)nc3cnc(OC)nc32)c1	i	.
O=C(CC1(O)C(=O)Nc2ccccc21)c1ccc2c(c1)OCO2 (centres undefined)	i	.
CCC(=O)N1CCc2cc(S(=O)(=O)NC(C(=O)NCc3ccc(C)cc3)C(C)C)ccc21 (centres undefined)	i	>57
O=C(NCc1ccc(Cl)cc1)C1CCCN(S(=O)(=O)c2cnc[nH]2)C1 (centres undefined)	i	.
CN(C)CCNC(=O)c1ccc(Cl)s1	i	>57
COc1ccc(N2Cc3cccc(C(=O)O)c3C2=O)cc1	i	.
COC(=O)/C=c1/sc2nc3ccccc3n2c1=O	i	.
CCCCCCCCCCCCOCC1CO1 (centres undefined)	i	.
CC(/C=C/C=C(C)/C=C/C(=O)O)=C\C=C\C=C(C)\C=C\C=C(C)\C=C\C(=O)O	i	.
O=C(c1cc2nc(-c3ccco3)cc(C(F)(F)F)n2n1)N1CCc2ccccc2C1	i	.
CCC(Sc1nc2ccccc2s1)C(=O)Nc1nnc(C)s1 (centres undefined)	i	.
Cc1ccc(OCc2nc(-c3ccccc3)no2)c(C)c1	i	.
COc1ccc(Nc2oc(COc3ccccc3F)nc2C#N)cc1	i	.
CCOC(=O)c1cc2occc2n1CC(=O)N1CCN(C(=O)c2ccco2)CC1	i	>57
Cn1c(SCC(=O)N2CCOCC2)nnc1-c1ccc(Cl)cc1Cl	.	>25.6
O=C(CN(C1CC1)S(=O)(=O)c1ccc(S(=O)(=O)NC2CCCCC2)cc1)Nc1ccccc1	i	>57
COc1ccc(NC(=O)CCN2CCCCC2)cc1	i	>57
COc1cc(NC(=O)Nc2cccc(C(C)=O)c2)cc(OC)c1OC	i	>57
O=C(COc1cccc(NC(=O)c2ccco2)c1)c1ccccc1	i	>57
CC(=O)N1CCN(C2c3cccc4cccc(c34)C2NS(=O)(=O)c2ccccc2)CC1 (centres undefined)	.	?
O=C(O)CC(NS(=O)(=O)c1ccc(Br)cc1)c1ccco1 (centres undefined)	i	?
CCCCCNC(=O)C(C#N)c1nc2ccccc2nc1N1CC(C)OC(C)C1 (centres undefined)	.	>25.6
COc1ccc(OC)c(N(CC(=O)NCc2cccnc2)S(C)(=O)=O)c1	i	>57
CC(C)CN(CC(C)C)c1nnc(N)s1	i	.
CN1CCN(c2ncnc3ccc(-c4ccccc4C#N)cc23)CC1	i	.
CCCn1c(=O)c2ccccc2n2c(SCC(=O)c3cc(C)n(CC4CCCO4)c3C)nnc12 (centres undefined)	i	>57
CCC(C)NC(=O)N[C@@H](Cc1ccccc1)C(=O)O (some centres undefined)	i	>57
CCCn1c(-c2ccc(F)cc2)cnc1SCC(=O)O	i	>57
CC(=O)Nc1ccc(N/C=C/C(=O)c2ccc(C)o2)cc1	i	i
O=C(CSc1ncn[nH]1)Nc1ccccc1C(=O)O	i	>57
O=C(CSc1nc2ccccc2o1)c1ccc2c(c1)OCCO2	i	>57
CC(C)NS(=O)(=O)c1ccc(OCC(=O)NCc2cccnc2)cc1	i	>57
O=C(O)CC(Cc1ccc(Br)cc1)C(=O)O (centres undefined)	i	.
Cc1cccc(NC(=O)CN(C)S(=O)(=O)c2cccc3nsnc23)c1C	i	>57
Nc1nc(-c2ccc(Cl)cc2Cl)cn1N	i	>57
O=C(NCCCn1ccnc1)c1cc(-c2ccc3c(c2)OCO3)on1	i	>57
Cc1c(C(=O)N2CCOCC2)sc2ncnc(N3CCc4ccccc4C3)c12	i	.
CCc1c(C)nc(SCC(=O)N2CCc3ccccc32)[nH]c1=O	i	>57
CC1(C)CC(Nc2ccc(Nc3ccccc3)cc2)CC(C)(C)N1	i	.
Cc1cccc(C2CC(c3ccc(F)cc3)Nc3nc(N)nn32)c1 (centres undefined)	i	.
O=C(O)c1cccc(Cl)c1Cl	i	.
COCCNC(=O)CCCCCN1C(=O)CCC1=O	i	>57
COc1ccccc1Oc1ccc(S(=O)(=O)Nc2cccnc2)cc1	i	>57
Nc1nc(-c2nc3ccccc3[nH]2)cs1	i	?
